Screens as filed in PubChem.
CSC inhib = blocks cancer stem cells. 300,000 tested, 1.1% active. cancer stem cell-like cells viability, luminescence. AID 2717. inhibition, % at 7.5 µM;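 active means mean at 75% or more and at least half the replicates too; tested in HMLE shEcad cells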;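 further: 0% = median of negative and 100% = median of positive control wells; the first replicate is given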
eIF4H FP inh = inhibitors of RNA binding by human eIF4H. Q15056. inhibition, % at 35 µM. eIF4H fluorescence polarization binding assay. 290,000 tested, 0.94% active;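 active means 50% or more with normal probe brightness, or confirmed in later tests; about a fifth of its hits are not listed in these tables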;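 further: calls also rest on retests at 20 µM and on dose response follow-up; 0% = protein and probe with vehicle and 100% = probe without protein; strong numbers were not always called active; many hits fall short of the cut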
UUG fidelity = yeast start codon fidelity modulation | S. cerevisiae UUG-firefly luciferase reporter, luminescence/redox ratio | activity score, % at 18.7 µM | 350,000 tested, 0.13% active | AID 602363;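 active means replicate mean at a twofold rise or more, about +100% in these data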;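 further: firefly luciferase made from a UUG start codon reports start codon fidelity; reporter light over untreated wells divided by growth signal over untreated wells; some hits fall short of that in this replicate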
HIV Env fusion = blocks HIV Env-driven cell-cell fusion | AID 651610 | HeLa-JRFL Env/CEM21 cell fusion, luciferase | 360,000 tested, 1.1% active | inhibition, % at 12.3 µM;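 active means mean replicate inhibition score of at least 50 and every replicate individually at or above 50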;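 further: 0% = plate neutral controls and 100% = maraviroc near 300 nM; one replicate is shown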
MT1-MMP act inh = inhibitors of human MT1-MMP activation | AID 651647 | GFP/RFP ratio change, % at 20 µM | 360,000 tested, 0.061% active | HT1080 RFP-PRO-GFP cells, GFP/RFP ratio fluorescence, overnight; percent of plate control window, DMSO zero;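 active means GFP/RFP ratio change of at least 30% with cell ATP level not reduced by more than half and red fluorescence within 50% of control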; further: strong numbers were not always called active
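Assay system: RFP-PRO-GFP reporter HT1080 cells; read-out basis: GFP/RFP fluorescence ratio; benchmarks: DMSO wells and RFP-L50D-GFP cells; doses: 20 µM single dose, 1% DMSO; schedule: overnight cell settling, then overnight compound exposure, 37 °C, 5% CO2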
PABP polyA inh = PABP-poly(A) binding inhibition. inhibition, % at 35 µM. PABP-poly(A) RNA binding, fluorescence polarization. P11940. 290,000 tested, 1% active;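 active means 50% or more with normal probe brightness, or confirmed in later tests; about a fifth of its hits are not listed in these tables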;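 further: calls also rest on retests at 20 µM and on dose response follow-up; controls were probe without protein and protein plus probe with vehicle; some compounds called inactive have numbers as strong as hits; many hits fall short of the cut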
Rce1 inh = blocks yeast Ras-converting enzyme | yeast membranes, quenched prenylated peptide cleavage fluorescence | calls only | 290,000 tested, 0.27% active | AID 2563;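 active means fall in fluorescence gain of 50% or more versus controls, with final raw signal at or below 3038400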;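 further: plate controls were neutral control wells for no effect and wells lacking membranes for full effect; tested at 10 µM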
Target sequence (Q03530 whole entry, looked up): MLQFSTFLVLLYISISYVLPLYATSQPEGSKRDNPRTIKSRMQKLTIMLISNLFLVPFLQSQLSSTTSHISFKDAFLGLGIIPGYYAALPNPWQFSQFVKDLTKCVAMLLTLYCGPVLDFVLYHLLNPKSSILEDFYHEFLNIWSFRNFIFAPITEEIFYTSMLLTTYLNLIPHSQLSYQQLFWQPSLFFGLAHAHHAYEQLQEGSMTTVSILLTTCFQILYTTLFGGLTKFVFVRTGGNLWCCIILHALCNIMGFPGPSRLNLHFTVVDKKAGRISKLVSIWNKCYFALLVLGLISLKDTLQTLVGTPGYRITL
eIF4H FP inh retest = further read-out of eIF4H FP inh, marked with its call; inhibition, %; compound at 20 µM; confirmation average;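 mean of two retest wells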
PABP polyA inh retest = further read-out of PABP polyA inh, marked with its call; inhibition, %; compound at 20 µM; confirmation repeats;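 mean of two retest wells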
MT1-MMP act inh RFP = second read-out of MT1-MMP act inh, no call of its own (marks repeat the call); RFP signal change, %; measured here: RFP expression control read;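 0 = vehicle wells; hits needed this value within 50% of zero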
* marks the source's active call; other numbers are inactive results; i = inactive; nt = no result given. Some of the compounds tested (hit frequency here may not be typical).

SMILES | CSC inhib | eIF4H FP inh | UUG fidelity | HIV Env fusion | MT1-MMP act inh | MT1-MMP act inh RFP | PABP polyA inh | Rce1 inh | others
Cc1cc(/C=N/NC(N)=S)c(C)n1-c1ccc(Cl)c(Cl)c1 | 45 | 0 | nt | -14 | 1 | -6 | 0 | i
CCC(C)NC(=O)CSc1nnc(-c2ccc(OC)c(OC)c2)c(-c2ccc(OC)c(OC)c2)n1 (stereo not drawn) | -5 | -7 | -13 | 12 | -3 | -1 | 2 | i
CCOC(=O)N1CCN(Cc2nc(C3CC3)no2)CC1 | -2 | 11 | nt | -8 | -3 | -1 | 3 | i
CC1(C)CC(=O)C2=C(C1)NC(Nc1nc3ccccc3o1)=NC2c1ccccn1 (stereo not drawn) | -3 | 9 | -14 | 8 | nt | nt | -1 | i
COCCOC(=O)C(C#N)c1nc2ccccc2nc1N1CCN(Cc2ccccc2)CC1 (stereo not drawn) | -6 | 37 | 11 | nt | -10 | -7 | 52 | i | eIF4H FP inh retest=4;PABP polyA inh retest=40
CCCCN(CC)Cc1ccc(CNC(=S)Nc2ccccc2F)o1 | 2 | -8 | nt | 6 | 3 | 4 | 9 | i
COc1ccccc1N1C(=O)CC(c2ccccc2)CC1=O | -17 | nt | -8 | 5 | 3 | 5 | nt | nt
CN(C)CCCNC(=S)N1CCC(C(=O)c2ccc(Cl)cc2)CC1 | nt | nt | -19 | 6 | 0 | -1 | nt | nt
COC(=O)C1=C(C)Nc2c(c(=O)n(C)c(=O)n2C)C1c1ccc(C)cc1 (stereo not drawn) | 4 | -6 | -14 | -1 | 0 | 9 | -7 | i
CC1CN(C(=O)c2cc(F)c(F)cc2Cl)CC(C)O1 (stereo not drawn) | -7 | nt | -8 | -76 | 5 | 3 | nt | i
COc1ccc(Cc2c[nH]c(=O)[nH]c2=O)cc1 | -23 | 3 | -20 | -9 | 4 | 5 | -4 | i
NCCCC[C@@H]1NC(=O)c2cc([N+](=O)[O-])cc(I)c2SC[C@@H](C(N)=O)NC(=O)[C@H](CCC(N)=O)NC1=O | -18 | -1 | 37 | 1 | -1 | 4 | -8 | i
COC(=O)C1=NNC2(C)C(=O)N(c3ccc(C)cc3)C(=O)C12 (stereo not drawn) | -10 | -7 | nt | -18 | 2 | 2 | -7 | i
COCCN(CCOC)c1nc(S(=O)(=O)c2ccc(C)cc2)c(Cl)s1 | -11 | 2 | -3 | -23 | 6 | -7 | 2 | i
Cc1ccc(-c2cc(C(=O)Nc3ccc(S(=O)(=O)Nc4onc(C)c4C)cc3)[nH]n2)c(O)c1 | 1 | -8 | -9 | 7 | -1 | 1 | 4 | i
C#CCOc1ccc(C2C3=C(COC3=O)Nc3cc4c(cc32)OCO4)cc1OC (stereo not drawn) | nt | 1 | nt | -184 | -2 | -1 | -9 | i
COc1ccc(CC(CN)c2ccccc2)cc1 (stereo not drawn) | 3 | -9 | -28 | 15 | 0 | -1 | 6 | i
CCCn1c(Oc2ccccc2)nc2c1c(=O)n(C)c(=O)n2C | -17 | 0 | -13 | 16 | 0 | -6 | 7 | i
Cc1ccc2c(CC(=O)OCn3nnc4ccccc4c3=O)coc2c1 | 5 | -2 | 7 | nt | 29 | -1 | 4 | i
Cc1cccc2c(N=Nc3ccccc3)c(O)[nH]c12 | -5 | 95* | nt | -134 | -23 | -1 | 57* | i

Continued; the last six above are carried over.
SMILES | CSC inhib | eIF4H FP inh | UUG fidelity | HIV Env fusion | MT1-MMP act inh | MT1-MMP act inh RFP | PABP polyA inh | Rce1 inh | others
Cc1ccc(-c2cc(C(=O)Nc3ccc(S(=O)(=O)Nc4onc(C)c4C)cc3)[nH]n2)c(O)c1 | 1 | -8 | -9 | 7 | -1 | 1 | 4 | i
C#CCOc1ccc(C2C3=C(COC3=O)Nc3cc4c(cc32)OCO4)cc1OC (stereo not drawn) | nt | 1 | nt | -184 | -2 | -1 | -9 | i
COc1ccc(CC(CN)c2ccccc2)cc1 (stereo not drawn) | 3 | -9 | -28 | 15 | 0 | -1 | 6 | i
CCCn1c(Oc2ccccc2)nc2c1c(=O)n(C)c(=O)n2C | -17 | 0 | -13 | 16 | 0 | -6 | 7 | i
Cc1ccc2c(CC(=O)OCn3nnc4ccccc4c3=O)coc2c1 | 5 | -2 | 7 | nt | 29 | -1 | 4 | i
Cc1cccc2c(N=Nc3ccccc3)c(O)[nH]c12 | -5 | 95* | nt | -134 | -23 | -1 | 57* | i
O=C(c1ccc2c(c1)OCO2)C1CCCN(Cc2ccccc2OC(F)F)C1 (stereo not drawn) | 6 | -4 | -6 | 0 | 0 | -1 | -7 | i
Cn1cnc(C(=O)NCc2ccc(CNC(=O)OC(C)(C)C)cc2)c1C(=O)NCc1ccc(CNC(=O)OC(C)(C)C)cc1 | -2 | nt | -14 | 46 | 19 | -28 | nt | nt
Cc1cccc([C@@H]2[C@@H]3C(=O)N(C)C(=O)[C@@H]3[C@@H]3C(=O)Nc4ccccc4C(=O)N23)c1 | 2 | 1 | -6 | -10 | -2 | 1 | -1 | i
Cc1ccc(NC2=Nc3ccccc3CC2)cc1 | nt | -11 | -65 | nt | 4 | 2 | -8 | i
O=C(Cc1ccc(Cl)cc1)N1CCC2(CC1)NCCc1[nH]cnc12 | 16 | -6 | -5 | -7 | -3 | 1 | 5 | i
COc1ccccc1N(CC(=O)Nc1cccc(C(F)(F)F)c1)S(C)(=O)=O | -2 | -13 | -7 | -79 | -2 | -3 | 5 | i
COc1ccc(CN(C(=O)CNC(=O)c2ccco2)C(C(=O)NC2CCCC2)c2ccco2)cc1 (stereo not drawn) | -4 | -11 | 4 | -49 | -1 | 3 | 0 | i
O=C(CSCc1cnn(-c2ccccc2)c1-n1cccc1)N1CCN(Cc2ccccc2)CC1 | 62 | -7 | 5 | 10 | -4 | -6 | -4 | i
Cc1cc(C)c(S(=O)(=O)Nc2cc(SCC(=O)O)c(O)c3ccccc23)cc1C | 2 | 13 | nt | nt | nt | nt | -1 | i
COc1ccc(C2C(C(=O)c3sc(C)nc3C)=C(O)C(=O)N2CCN2CCOCC2)cc1 (stereo not drawn) | nt | 3 | -11 | nt | -1 | 2 | -4 | i
Cc1cc(C)c(S(=O)(=O)N2CCCCC2CCNC(=O)C(=O)NCCN2CCOCC2)c(C)c1 (stereo not drawn) | -6 | nt | -5 | 4 | -1 | -2 | nt | i
C=CCSc1nc2c(sc3nc(C)cc(C)c32)c(=O)[nH]1 | -2 | -7 | -21 | -38 | 7 | 4 | -3 | i
Cc1cc2c(cn1)C(CCC#N)(CCC#N)c1ccccc1-2 | -17 | -7 | -16 | -1 | 1 | 2 | -3 | nt
Cc1cc(NC(=O)c2ccc(C(C)(C)C)cc2)no1 | nt | nt | -36 | -24 | 1 | -2 | nt | nt
COC(=O)c1ccc(C(=O)OC)c(NC(=O)COC(=O)c2ccccc2OC)c1 | -1 | -2 | nt | -6 | 3 | 10 | -8 | i
Cc1cccc(OCCCC(=O)NC2CCCCC2)c1 | -7 | 0 | -10 | 9 | -2 | 1 | 14 | i
CCN(CC)N=Nc1ccc(C(=O)O)cc1 | 27 | 6 | nt | -6 | 2 | 0 | -5 | i
O=C(Cc1c(F)cccc1Cl)Nc1cc(S(=O)(=O)N2CCCCC2)ccc1N1CCOCC1 | 27 | -4 | -10 | 41 | -4 | -5 | -5 | i
Cc1cccc(C)c1NC(=O)c1cnn(-c2ccccc2)c1C | 13 | 6 | -5 | 14 | -4 | -3 | 7 | i
C=C(C)Cn1c(SCC(=O)N/N=C/c2c(O)ccc3ccccc23)nc2ccccc2c1=O | 103* | 0 | 2 | nt | -11 | -17 | 5 | i

Some of these compounds in order of formula weight, falling:
SMILES | CSC inhib | eIF4H FP inh | UUG fidelity | HIV Env fusion | MT1-MMP act inh | MT1-MMP act inh RFP | PABP polyA inh | Rce1 inh | others
Cn1cnc(C(=O)NCc2ccc(CNC(=O)OC(C)(C)C)cc2)c1C(=O)NCc1ccc(CNC(=O)OC(C)(C)C)cc1 | -2 | nt | -14 | 46 | 19 | -28 | nt | nt
O=C(Cc1c(F)cccc1Cl)Nc1cc(S(=O)(=O)N2CCCCC2)ccc1N1CCOCC1 | 27 | -4 | -10 | 41 | -4 | -5 | -5 | i
Cc1cccc(OCCCC(=O)NC2CCCCC2)c1 | -7 | 0 | -10 | 9 | -2 | 1 | 14 | i

Further records follow.
SMILES | CSC inhib | eIF4H FP inh | UUG fidelity | HIV Env fusion | MT1-MMP act inh | MT1-MMP act inh RFP | PABP polyA inh | Rce1 inh | others
CC1=C(C(=O)OC2CCCCC2)C(c2cccnc2)n2nnnc2N1 (stereo not drawn) | 5 | 4 | -18 | 9 | 8 | -9 | 4 | i
CN1CCN(S(=O)(=O)c2ccc(Br)c3nsnc23)CC1 | -3 | -5 | -14 | -12 | -2 | 3 | -6 | i
CCOC(=O)c1c(/N=C/C2=C(O)CC(C)(C)CC2=O)sc2c1CCCC2 | 11 | -7 | 11 | 6 | 2 | 0 | -1 | i
CCOC(=O)C1=C(COC(=O)C(CC)c2ccccc2)NC(=O)NC1C (stereo not drawn) | -6 | nt | -3 | 6 | 2 | -2 | nt | nt
Cc1ccc(S(=O)(=O)N2C[C@@H]3[C@H]4CC[C@H](C4)[C@@H]3[C@@H](C)[C@@H]2c2cn(Cc3ccccc3)c3ncccc23)cc1 | nt | nt | -23 | 18 | -13 | -20 | nt | nt
COc1c(NC=O)c2c(c([N+](=O)[O-])c1OC)C(=O)OC2 | nt | nt | -10 | 5 | -7 | 0 | nt | nt
Cn1c(=O)c(C(=O)NC2CCCCCCC2)c(O)c2ccccc21 | 13 | 5 | -7 | nt | 0 | -2 | 17 | i
O=C(Nc1ccccc1)c1cc(Cl)nc2ccccc12 | 6 | -8 | nt | nt | -4 | -3 | 8 | i
CCCc1c(C(=O)N/N=C(\C)CCc2ccc(OC)cc2)nnn1-c1nonc1N | -13 | -6 | -19 | -8 | 0 | 2 | -5 | i
CCc1nc2ccc(C(=O)NCCC(C)C)cn2c1N(CC)CCOC | nt | nt | -3 | 0 | -1 | 8 | nt | nt
CC(=O)Oc1c(S(=O)(=O)c2ccc(C)cc2)c(C)nn1C(C)(C)C | 14 | -8 | nt | nt | 3 | 12 | -15 | i
COc1ccc(/C=C/c2ccc3cccc(O)c3n2)cc1Br | 31 | 15 | -7 | -35 | 12 | -3 | -1 | i
COc1ccc(-c2noc(CN3CCOCC3)n2)cc1OC | 5 | 1 | -14 | nt | 3 | 2 | -6 | i
COc1cc(NS(=O)(=O)c2ccc(C)cc2)c2c(c1N)C(=O)c1ccccc1C2=O | nt | nt | 58 | 23 | 47* | 47* | nt | nt
OC[C@@H]1CN(Cc2ccccc2)C[C@H](n2ccc3c(N4CCCC4)ncnc32)O1 | nt | nt | 0 | 5 | 6 | 6 | nt | nt
Cc1[nH]c(=O)[nH]c(=O)c1NC(=O)c1ccc(OC(C)C)cc1 | -12 | -6 | nt | -4 | 4 | 3 | 3 | i
COc1ccc(Br)cc1CN(C)CC(=O)NCc1ccc(F)cc1 | 12 | -2 | -7 | 13 | -2 | -3 | 7 | i
O=[N+]([O-])c1ccc(C(O)CN2CCOCC2)cc1 (stereo not drawn) | -12 | -8 | -18 | 0 | -2 | 0 | 2 | i
CCc1cc2c(Nc3ccccc3O)nc(C)nc2s1 | -11 | -14 | -5 | -7 | -2 | -12 | 3 | i
CC(=O)Nc1ccc(Nc2ncnc3ccccc23)cc1 | nt | -12 | nt | nt | nt | nt | 4 | i
N#CNC(N)=Nc1cccc(Cl)c1 | -3 | -3 | -22 | -130 | -3 | -5 | -11 | i
